Screening data as filed in PubChem.
D2 ag: Beta-Arrestin HTS for Positive Allosteric Modulators of the Human D2 Dopamine Receptor: Agonists; activation, % (test concentration not listed); D(2) dopamine receptor (Homo sapiens), P14416; DiscoveRx PathHunter D2 beta-arrestin, luminescence, 90 min; 100% = 57 uM dopamine signal; hit rate 0.084% among 360,000; AID 624465, 2012; in the data active = activation above about 40%; inconclusive = about 15% to 40%; inactive = below about 15%; note: compound concentration not given in the record; the text of the record calls up to 30% inactive
Target sequence (P14416 whole entry, looked up): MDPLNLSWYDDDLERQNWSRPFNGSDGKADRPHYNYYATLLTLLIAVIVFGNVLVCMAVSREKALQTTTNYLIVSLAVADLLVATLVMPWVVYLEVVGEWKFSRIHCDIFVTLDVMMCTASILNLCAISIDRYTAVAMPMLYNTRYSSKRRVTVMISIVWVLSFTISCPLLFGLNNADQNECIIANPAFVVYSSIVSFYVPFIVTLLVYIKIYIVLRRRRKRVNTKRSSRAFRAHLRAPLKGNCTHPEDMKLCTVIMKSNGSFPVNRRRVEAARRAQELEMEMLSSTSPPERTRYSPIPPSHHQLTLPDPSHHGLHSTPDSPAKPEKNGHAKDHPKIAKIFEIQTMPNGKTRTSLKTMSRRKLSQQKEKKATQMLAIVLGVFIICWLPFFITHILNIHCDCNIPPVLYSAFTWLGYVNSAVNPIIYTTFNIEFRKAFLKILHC
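Agonist mode: compounds alone added to overnight-plated D2 PathHunter cells for 90 min at 37 C, with 57 uM final dopamine (EC100) defining full response. Beta-arrestin recruitment detected by chemiluminescent reagent, read after 1 h at ambient temperature.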
Six1-Eya2 blk: qHTS Assay for Inhibitors of the Six1/Eya2 Interaction. Homeobox protein SIX1 (Homo sapiens) + Protein phosphatase EYA2 (Homo sapiens), …. AlphaScreen GST-Six1/His-Eya2 binding, biochemical; stronger effect = lower value; control for the full effect not named in the record. activity change, % (no concentration beside the values). hit rate 0.56% among 360,000; in the data active = activity change below about -65%; inconclusive = about -30% to -65%; inactive = above about -30%; note: % is set by controls: 0 for no effect and ±100 for the full control effect; compound concentration not given in the record
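GST-Six1 + His-Eya2 (5X stock: 250/500 nM); Tris pH 8.0, 300 mM NaCl, 0.05% BSA, 0.02% Tween 20; GSH donor/Ni acceptor beads; 1 h 37 °C dark; AlphaScreen readout.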
D2 PAM: Beta-Arrestin HTS for Positive Allosteric Modulators of the Human D2 Dopamine Receptor: Potentiators; DiscoveRx D2 beta-arrestin cells, luminescence, 90 min; 100% = 57 uM dopamine signal; potentiation, % (no concentration beside the values); hit rate 0.23% among 360,000; AID 624464, 2012; active = potentiation of 50% or more; inconclusive = 30% to 50%; inactive = 30% or less;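 note: compound concentration not given in the record; tested on top of an EC20 dose of dopamine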
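PathHunter D2 cells, attached overnight at 37 deg C, received compound in DMSO plus dopamine at EC20 (50 nM final) for 90 min at 37 deg C. Beta-arrestin recruitment was read as luminescence after 1 h with detection reagent at ambient temperature.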
PINK1 expr mod: A Quantitative High throughput Screen to Identify Chemical Modulators of PINK1 Expression; Potency, µM (highest dose often 76.6 µM), without a hit: top-dose activation (PINK1 increase), hits mostly activators; hit rate 0.2% among 410,000; PINK1 immunofluorescence, high-content cytometry, 24 h; active = well fitted activation curve with a large enough effect; inconclusive = small, poorly fitted or top-dose-only effect; inactive = flat fitted curve, though single readings scatter; cell line not stated here;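 note: potency is the fitted concentration of half-maximal effect; % of control where 0% means no effect; nearly all actives have a fitted effect of over 65% in size; a mitochondrial uncoupler was the plate control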
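PINK1 protein level read as immunofluorescence by microplate cytometer in a fixed, stained stable cell line after 24 h exposure to five compound concentrations, with CCCP as control.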
TRPML1 ag: qHTS for Agonists of the Human Mucolipin Transient Receptor Potential 1 (TRPML1); TRPML1-expressing cells, Ca2+ dye fluorescence, FDSS; host cell line not named in the record; reference of the full effect not given here; activation, % (concentration not given with the values); hit rate 0.12% among 410,000; in the data active = activation above about 50%; inconclusive = about 30% to 50%; inactive = below about 30%; note: 0% is about no effect; the text of the record puts the active cut at 80%
Target sequence (Q9GZU1 whole entry, looked up): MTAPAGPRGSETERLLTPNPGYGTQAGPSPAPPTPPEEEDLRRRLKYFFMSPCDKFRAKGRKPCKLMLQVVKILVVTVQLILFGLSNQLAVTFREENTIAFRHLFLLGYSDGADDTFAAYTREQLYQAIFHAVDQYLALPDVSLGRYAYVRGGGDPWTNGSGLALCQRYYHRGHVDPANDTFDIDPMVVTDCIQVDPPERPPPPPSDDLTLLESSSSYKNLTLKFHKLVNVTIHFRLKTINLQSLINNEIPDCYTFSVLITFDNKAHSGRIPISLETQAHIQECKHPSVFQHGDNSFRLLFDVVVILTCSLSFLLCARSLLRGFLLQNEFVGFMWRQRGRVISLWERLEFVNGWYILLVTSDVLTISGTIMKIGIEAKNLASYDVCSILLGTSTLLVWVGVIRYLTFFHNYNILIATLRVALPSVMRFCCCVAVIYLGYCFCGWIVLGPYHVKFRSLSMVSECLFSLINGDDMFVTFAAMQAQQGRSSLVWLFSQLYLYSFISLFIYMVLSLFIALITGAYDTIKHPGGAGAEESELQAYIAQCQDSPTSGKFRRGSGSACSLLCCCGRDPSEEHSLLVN
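Calcium fluorescence on an FDSS kinetic reader gave the read-out. Tet-induced TRPML1-DL cells were plated overnight, dye-loaded (Ca8 with quencher, 45-90 min, room temperature, dark), then read 110 s after compound addition, and again 110 s after 4uM final 54-4 (EC80).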
TRPML1 inh: qHTS for Inhibitors of the Human Mucolipin Transient Receptor Potential 1 (TRPML1). Mucolipin-1 (Homo sapiens), Q9GZU1. TRPML1-inducible cells, Ca2+ dye fluorescence, FDSS; stronger effect = lower value; inhibition of EC80 agonist-evoked calcium signal. activity change, negative = inhibition, % (concentration not given with the values). hit rate 0.02% among 390,000. AID 624415, 2012; in the data active means activity change below about -50%; inconclusive means about -30% to -50%; inactive means above about -30%;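 note: stimulus is agonist 54-4 at its EC80 concentration; % is set by controls: 0 for no effect and ±100 for the full control effect; compound concentration not given in the record; the text of the record puts the active cut at -80%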
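Tet-induced TRPML1-DL cells loaded with Ca8 no-wash calcium dye were read kinetically on FDSS. Compound addition was followed by EC80 agonist 54-4 (4 uM final); inhibition was read over 110 s.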
* marks the source's active call; other numbers are inactive results; ? = inconclusive; nt = no result given; [ ] = another dose, or the depositor's remark.

SMILES | D2 ag | Six1-Eya2 blk | D2 PAM | PINK1 expr mod | TRPML1 ag | TRPML1 inh
CCS(=O)(=O)Nc1cccc(C(=O)CC2(O)C(=O)Nc3ccccc32)c1 (configuration not stated) | -3.6 | 9.0 | -4.3 | -0.6% | -0.2 | 13.7
CC(C)=CCc1c(O)cc(O)c2c(=O)c3c(CC=C(C)C)c(O)ccc3oc12 | -1.3 | -8.6 | -56.5 | ? | nt | nt
CCOc1ccc(CNCc2c(C(=O)O)c(C)n(Cc3ccc(F)cc3Cl)c2C)cc1 | nt | nt | nt | -1.4% | -0.9 | 1.6
CCN(CC)S(=O)(=O)c1cccc(C(=O)Nc2ccc(S(=O)(=O)NC3=NCCCCC3)cc2)c1 | 1.5 | 4.9 | -7.9 | -0.1% | 0.2 | 43.7
Cc1ccsc1/C=N/NC(=O)C(N)=O | -2.1 | -15.5 | 10.1 | 0.2% | 0.7 | 6.5
COC(=O)c1ccc(CN2CCCC(CO)(Cc3ccccc3F)C2)cc1 (configuration not stated) | -0.8 | 0.4 | -0.7 | -0.5% | 0.6 | 15.2
CCOc1ccccc1NC(=O)Nc1ccc2c(c1)CCC2 | 1.6 | -3.6 | -28.6 | 1.1% | 2.0 | 10.6
CC1=C(C(=O)OCc2ccccc2)C(c2ccc3c(c2)OCO3)NC(=O)N1CCCC(=O)O (configuration not stated) | -0.8 | 2.7 | -11.5 | -1.0% | -0.6 | -8.4
CCc1ccc(CNC(=O)CN2C(=O)CSc3c2c(C)nn3-c2ccccc2)cc1 | nt | nt | nt | 7.0% | 0.8 | -15.7
Cc1ccc(CC2CC(=O)N(c3nc(C)cc(C)n3)C2=O)cc1 (configuration not stated) | -5.2 | 9.2 | -1.2 | 1.1% | -0.4 | -3.7
Cc1cccc2c(C(=O)n3cccn3)cc(-c3ccccc3Cl)nc12 | -1.5 | -7.5 | -18.6 | 1.7% | -0.8 | 16.9
CC(C)C(C(=O)NCc1ccco1)N(Cc1ccco1)C(=O)CNS(=O)(=O)c1ccccc1 (configuration not stated) | 0.3 | -0.9 | -7.1 | 1.0% | -0.2 | -16.4
CCCCN(Cc1ccccc1)C1CCN(Cc2ccccc2)CC1 | -6.0 | -9.7 | -27.1 | 29.9% | -0.6 | 10.4
O=C(CCc1nnc(CCCCc2ccccc2)o1)N(CCO)Cc1ccccc1 | -0.4 | 1.5 | -1.3 | 1.5% | 0.2 | 32.0
Cc1nn2c(NCCN3CCOCC3)c3c(nc2c1-c1ccccc1)CCCC3 | -3.4 | -0.2 | -16.2 | 4.5% | -0.3 | 24.9
CNC(=O)c1csc(Cc2c(Cl)sc3ccc(Cl)cc23)n1 | 4.4 | 0.9 | -0.8 | 4.8% | 2.6 | -6.3
CCC1(C)CC(C#N)(C#N)C(=O)NC1=O (configuration not stated) | -5.4 | 2.2 | -8.0 | -0.6% | -0.5 | nt
CCc1[nH]nc(C(=O)N2CCCC(Nc3ccc(C(C)C)cc3)C2)c1C (configuration not stated) | 4.5 | -11.9 | -11.0 | -0.2% | -0.2 | 1.9
Cc1ccc(C(C(=O)NC2CCCCC2)N2CCN(C(=O)c3ccco3)CC2)cc1 (configuration not stated) | -2.1 | 0.9 | 1.0 | -1.0% | 0.4 | -11.8
COc1cccc(C=NN2CCCCCC2)c1OC | -2.3 | -19.9 | -1.4 | 7.5% | -0.9 | 5.1
CCCCN(C(=O)NC(=O)Nc1cccc(C)c1C)S(C)(=O)=O | -3.3 | -2.0 | -8.1 | nt | 10.0 | -9.3
O=C(NCc1ccccn1)c1ccccc1OCc1ccc(F)cc1 | -4.4 | 0.3 | -20.7 | -1.1% | 1.2 | -0.7
CCOc1ccc(/C(CCC(=O)O)=N/NC(=S)NCCc2ccccc2)cc1 | 0.7 | -14.3 | -1.7 | -1.2% | 1.2 | 8.0
O=C(OCC(=O)c1c[nH]c2ccccc12)c1cccc([N+](=O)[O-])c1 | 4.3 | ? | 0.0 | 3.6% | 3.6 | 32.8
CC(C)(C)N/N=C1\CC(c2ccccc2)Oc2ccccc21 (configuration not stated) | -3.3 | 7.1 | -2.3 | 9.1% | 5.6 | -1.5
COc1ccc(-c2cc(C(F)F)n3ncc(C(=O)Nc4cc(C)on4)c3n2)cc1 | -4.4 | 6.6 | 3.1 | 6.8% | -0.4 | 2.6
Cc1ccc(-n2c(C)cc(C(=O)CN3CCOCC3)c2C)cc1C | -0.6 | -7.4 | -14.5 | 1.6% | 0.9 | 2.3
Cc1cccc(NC(=O)CSc2nnnn2-c2cccnc2)c1 | -1.2 | 0.2 | -13.4 | 3.7%[38.3 µM] | -0.3 | 43.6
Cn1c(CCC(=O)Nc2ccccc2F)nnc1SCC(=O)Nc1ccccc1Cl | -3.6 | 1.6 | -8.7 | -0.2% | -0.3 | 6.3
N#C/C(=C\c1ccc([N+](=O)[O-])cc1)c1ccccn1 | 4.2 | -20.2 | 9.3 | 0.3% | -1.8 | 2.0
CCSc1nc2nccnc2c(=O)[nH]1 | -3.6 | -11.6 | -8.4 | -0.4% | 0.1 | 21.5
CCOC(=O)c1ccc(Oc2ccc(C(F)(F)F)cn2)cc1 | -3.0 | 16.4 | -6.3 | 3.0% | 1.3 | 0.2
O=S1CCCSC1c1cccnc1 (configuration not stated) | 3.9 | 2.5 | -1.4 | 0.6%[38.3 µM] | -0.6 | 3.7
O=C(Oc1ccc(-c2ccccc2)cc1)C1C2CCCCC21 (configuration not stated) | -5.9 | 15.8 | -1.5 | 4.6% | 2.8 | -13.9
Cc1cccc(C)c1C(O)c1ncc(-c2ccccc2Cl)[nH]1 (configuration not stated) | -2.7 | -7.7 | -7.9 | 2.3% | -0.2 | nt
CN(CCc1ccccc1)C1CCCN(S(=O)(=O)N(C)C)C1 (configuration not stated) | 0.7 | -2.3 | -54.7 | -1.5% | -0.6 | 36.3
CCc1ccccc1NC(=O)c1cc(-c2ccc(F)cc2)on1 | -19.2 | 13.4 | -10.2 | 0.5% | 0.5 | 21.4
O=C(O)c1ccc(C(=O)c2cc([N+](=O)[O-])cc([N+](=O)[O-])c2)cc1 | ? | -3.2 | 23.4 | -0.3% | -0.5 | -9.5
O=c1c2ccccc2nnn1Cc1ccc(Br)cc1 | -2.2 | 10.5 | 2.7 | 3.0% | 0.8 | -16.4
O=C(c1ccc(Cl)cc1)n1nc(-c2ccco2)nc1NCc1cccs1 | nt | nt | nt | -0.9% | -0.5 | -10.0

Part of the list above, reformatted:
Each structure is followed by: D2 ag, Six1-Eya2 blk, D2 PAM, PINK1 expr mod, TRPML1 ag, TRPML1 inh
- CN(CCc1ccccc1)C1CCCN(S(=O)(=O)N(C)C)C1 (configuration not stated)
  0.7, -2.3, -54.7, -1.5%, -0.6, 36.3
- CCc1ccccc1NC(=O)c1cc(-c2ccc(F)cc2)on1
  -19.2, 13.4, -10.2, 0.5%, 0.5, 21.4
- O=C(O)c1ccc(C(=O)c2cc([N+](=O)[O-])cc([N+](=O)[O-])c2)cc1
  ?, -3.2, 23.4, -0.3%, -0.5, -9.5
- O=c1c2ccccc2nnn1Cc1ccc(Br)cc1
  -2.2, 10.5, 2.7, 3.0%, 0.8, -16.4

Remaining list, next part:
SMILES | D2 ag | Six1-Eya2 blk | D2 PAM | PINK1 expr mod | TRPML1 ag | TRPML1 inh
NC(=O)c1csc(CCNC(=O)c2ccccc2)n1 | -2.1 | 0.3 | -3.7 | 1.3% | 0.4 | -6.3
O=C(NCC1CCS(=O)(=O)C1)Oc1ccccc1 (configuration not stated) | -0.9 | -0.4 | -6.8 | -1.1%[38.3 µM] | -0.6 | 10.0
CCOC(=O)Cn1c(=NC(=O)c2nc3ccccc3s2)sc2cc(S(N)(=O)=O)ccc21 | ? | 4.1 | -11.2 | 8.7% | -0.3 | -1.8
O=S(=O)(N/N=C1/CCCc2ccccc21)c1ccc(Br)cc1 | 0.4 | -3.2 | -7.6 | -0.7% | 0.7 | 8.0
Cc1ccc(S(=O)(=O)N(C)C)cc1-n1c(SCC(=O)Nc2ccc(F)cc2)nc2ccccc2c1=O | -3.0 | -2.6 | -2.9 | 0.9% | 2.2 | 12.2
CC1=CS(=O)(=O)CC1Sc1nc2ccccc2[nH]1 (configuration not stated) | -0.6 | 5.4 | 4.1 | 3.5%[38.3 µM] | 0.9 | -1.8
CCOc1ccc(CC(=O)NCc2ccc3c(c2)CCN3C(=O)c2ccccc2)cc1OCC | nt | nt | nt | 2.2% | 0.9 | 11.1
CCCC(=O)Nc1sc(-c2ccccc2)c(-c2ccccc2)c1C(=O)O | -1.4 | -9.6 | -5.3 | -1.0% | -0.6 | 7.6
N#Cc1c(N)nc2c(c1-c1ccc3c(c1)OCO3)CCCCCC2 | 0.0 | -2.3 | -0.5 | 10.6% | 5.7 | 2.3
CC(c1ccco1)N(C(=O)c1ccc(C#N)cc1)c1ccccn1 (configuration not stated) | 1.1 | -1.6 | 4.8 | -1.5% | 0.1 | 14.2
Cn1c(=O)c2c(ncn2CC(=O)N/N=C/C(Cl)=C/c2ccccc2)n(C)c1=O | -5.0 | 4.3 | -6.2 | 8.9% | -0.3 | 5.0
O=C1NC2CCCCC2C(=O)N1OS(=O)(=O)c1ccccc1 (configuration not stated) | 2.9 | 0.0 | -32.6 | 7.8% | -0.1 | -9.7
O=S(=O)(N=C1C=CC(=NS(=O)(=O)c2ccccc2)c2ccccc21)c1ccccc1 | 6.6 | 1.0 | 1.2 | 1.3% | -0.6 | 3.7
COc1ccc(C(=O)C[n+]2ccc3c(c2)nc(-c2cc(OC)c(OC)cc2OC)n3C)cc1 | -4.2 | -11.9 | -26.5 | -0.2% | -0.2 | 1.8
CCCNC(=O)c1ccccc1N1CCN(CCCCN2C(=O)C3CCCCN3C2=O)CC1 (configuration not stated) | -5.5 | 0.3 | -65.8 | -1.2% | -0.1 | -4.8
CC(C)NC(=O)c1onc(CSc2cccc3ccccc23)c1C(=O)O | 0.1 | -5.3 | 7.1 | 0.5% | -0.8 | 9.5
COc1ccc(O)c(C(=O)c2cnn(S(=O)(=O)c3ccc(C)cc3)c2)c1 | 6.9 | -19.1 | 3.4 | 1.9% | 0.7 | -1.1
O=C(CSc1nnc(-c2cccnc2)n1CCN1CCCCC1)Nc1cccc(Cl)c1 | -1.8 | 4.9 | -20.0 | 1.5% | -0.1 | -6.3
Cc1ccc(NC(=O)N2CCC(N3CCN(Cc4ccccc4)C(=O)C3=O)CC2)cc1Cl | nt | nt | nt | 0.3% | 1.0 | -13.0
O=C(Nc1cccc(S(=O)(=O)Nc2ccc(Cl)cc2)c1)c1ccc[n+]([O-])c1 | -2.2 | 17.4 | -7.7 | 0.5% | -0.1 | -13.2
CCOc1ccccc1NC(=O)C1CCCN(C(=O)Nc2ccccc2)C1 (configuration not stated) | -4.8 | 1.0 | -13.8 | -2.8% | 0.0 | ?
